From PubChem
GLP1R inv ag = inverse agonists of human GLP-1 receptor; P43220; HEK293 GLP-1R CRE-luciferase, luminescence, 24 h; GLP-1R form is constitutively active; Potency, µM (series often up to 38.3 µM), for the others: at the highest dose activity change, negative = inhibition, most hits filed as inhibitors; 410,000 compounds, 1.6% hits; note: % is set by controls: 0 for no effect and ±100 for the full control effect; nearly all actives have a fitted effect of over 55% in size
Target sequence (P43220 whole entry, looked up): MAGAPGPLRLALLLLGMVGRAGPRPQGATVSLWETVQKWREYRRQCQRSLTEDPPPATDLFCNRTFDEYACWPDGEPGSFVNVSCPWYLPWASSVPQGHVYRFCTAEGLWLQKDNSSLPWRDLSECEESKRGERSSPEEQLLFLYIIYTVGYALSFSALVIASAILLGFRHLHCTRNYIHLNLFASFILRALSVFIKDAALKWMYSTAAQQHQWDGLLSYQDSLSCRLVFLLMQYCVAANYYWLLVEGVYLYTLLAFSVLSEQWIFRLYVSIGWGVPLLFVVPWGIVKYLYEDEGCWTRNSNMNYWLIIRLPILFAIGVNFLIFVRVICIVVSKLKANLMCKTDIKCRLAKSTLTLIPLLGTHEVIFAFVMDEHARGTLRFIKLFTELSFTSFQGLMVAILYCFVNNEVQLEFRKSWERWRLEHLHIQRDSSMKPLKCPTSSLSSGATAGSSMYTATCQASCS
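Constitutively active GLP-1R drives a cAMP-responsive luciferase in stably transfected HEK293 cells; test compounds are added after overnight (12 h) attachment and left 24 hr, and signal loss in luminescence marks inhibition.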
TDP-43 yeast inh = TDP-43 toxicity inhibition in yeast; TDP-43 expressing yeast growth rescue, BacTiter-Glo, 24 h; Potency, µM (top dose mostly 46.1 µM), without a hit: at the top dose growth rescue (activation), hits mostly activators; 410,000 compounds, 1.8% hits; AID 652104; note: % of control where 0% means no effect; nearly all actives have a fitted effect of over 50% in size
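Galactose-induced TDP-43 yeast, OD600=0.02, compound pinned; 24 hr, 30 deg C; BacTiter-Glo luminescence for growth. Inhibitors of TDP-43 toxicity read as activators.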
KB-V1 cytotox = KB-V1 MDR subline cytotoxicity; KB-V1 MDR cells viability, CellTiter-Glo, 72 h; Potency, µM (top dose mostly 46.1 µM), inactives show at the top dose activity change, negative = cytotoxicity, usual class: cytotoxic; 400,000 compounds, 3.4% hits; AID 1347076; note: % is set by controls: 0 for no effect and ±100 for the full control effect; nearly all actives have a fitted effect of over 60% in size
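Cells of the MDR subline KB-V1 are plated, dosed with compound at multiple concentrations, and incubated 72 h at 37 degrees C; CellTiter-Glo is then added and luminescence read after 10 min.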
aSyn rescue = alpha-synuclein toxicity inhibition in yeast | Potency, µM (titrated, usually from 46.1 µM), without a hit: at the top dose growth rescue (activation), usual class: activators | AID 652106 | 370,000 compounds, 0.14% hits | Yeast expressing alpha-synuclein, growth rescue, BacTiter-Glo, 24 h; note: % of control where 0% means no effect; nearly all actives have a fitted effect of over 65% in size
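Rescue of yeast growth: cells expressing toxic alpha-synuclein, induced in galactose at OD600 0.02, incubated with compound 24 h at 30 C. ATP luminescence quantified growth; inhibitors of toxicity appear as activators.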
GLP1R ag = agonists of human GLP-1 receptor; AID 624172; 380,000 compounds, 0.007% hits; P43220; HEK293 GLP-1R CRE-luciferase, luminescence, 4-6 h; cells express a hypersensitive GLP-1R form; Potency, µM (titrated, usually from 45.6 µM), without a hit: at the highest dose activation, actives largely listed as activators; note: % of control where 0% means no effect
Active calls of the source: *; ? = inconclusive; · = no result given; & = joins results of further samples; [ ] = dose if it differs, or a comment. Calls come from the whole dose curve; as a rule, active = well fitted curve in the direction sought with a large enough effect; inconclusive = small, poorly fitted or top-dose-only effect, or another doubt; inactive = no such curve, though single readings can be large; an effect the other way counts as inactive or inconclusive. Potency is the fitted concentration of half-maximal effect. Only part of the results is shown; the hit share may differ from the screen's.

A first look (11 entries):
Values in the order: GLP1R inv ag | TDP-43 yeast inh | KB-V1 cytotox | aSyn rescue | GLP1R ag
> C[C@]12CC[C@H](O)CC1=CCC1C2CC[C@]2(C)C(=O)CC[C@@H]12 (stereo not given in full)
 : · | · | · | · | -5%
> CCCc1cc(-c2nc(N)ncc2-c2ccc3c(c2)OCCCO3)c(O)cc1OC
 : 10µM* | -11% | 2.9µM* | -13% | -30%[inhibitor]
> NC1CC1c1ccccc1 (stereo not given)
 : · | · | · | -1% | ·
> COc1ccccc1N1CCN(CCc2ccccc2)CC1
 : -2% | 11% | 3% | 2% | -2%
> COc1ccc(-n2c(=O)[nH]c3ccccc3c2=O)c(OC)c1
 : 1% | -4% | ? | -1% | 2%
> CN(C)CC/C=C1/c2ccccc2Sc2ccc(Cl)cc21
 : ? | 21%&10% | ? | 4%&1% | -3%&7%
> C[C@]12CCC(=O)C=C1CCC1C2CC[C@@]2(C)C1CC[C@@H]2O (stereo not given in full)
 : 60%[activator] | 23% | 2.3µM* | 0% | 18%
> CN1C[C@H](CNC(=O)OCc2ccccc2)C[C@@H]2c3cccc4c3c(cn4C)C[C@H]21
 : ? | 8% | -25% | 16%&-3% | 6%&10%
> CC1CCC2C(C)C(=O)OC3OC4(C)CCC1C32OO4 (stereo not given)
 : -26% | ? | -3% | 13% | 6%
> CC(Cc1ccc(O)cc1)NCC(O)c1cc(O)cc(O)c1 (stereo not given)
 : 29% | 0% | 7% | 1%&3% | ?
> CN(C)[C@@H]1C(=O)C(C(N)=O)=C(O)[C@@]2(O)C(=O)C3=C(O)c4c(O)cccc4[C@@](C)(O)C3C[C@@H]12 (stereo not given in full)
 : 0% | -14% | -3% | ? | -3%

The whole of this part, from the first entry:
Values in the order: GLP1R inv ag | TDP-43 yeast inh | KB-V1 cytotox | aSyn rescue | GLP1R ag
> C[C@]12CC[C@H](O)CC1=CCC1C2CC[C@]2(C)C(=O)CC[C@@H]12 (stereo not given in full)
 : · | · | · | · | -5%
> CCCc1cc(-c2nc(N)ncc2-c2ccc3c(c2)OCCCO3)c(O)cc1OC
 : 10µM* | -11% | 2.9µM* | -13% | -30%[inhibitor]
> NC1CC1c1ccccc1 (stereo not given)
 : · | · | · | -1% | ·
> COc1ccccc1N1CCN(CCc2ccccc2)CC1
 : -2% | 11% | 3% | 2% | -2%
> COc1ccc(-n2c(=O)[nH]c3ccccc3c2=O)c(OC)c1
 : 1% | -4% | ? | -1% | 2%
> CN(C)CC/C=C1/c2ccccc2Sc2ccc(Cl)cc21
 : ? | 21%&10% | ? | 4%&1% | -3%&7%
> C[C@]12CCC(=O)C=C1CCC1C2CC[C@@]2(C)C1CC[C@@H]2O (stereo not given in full)
 : 60%[activator] | 23% | 2.3µM* | 0% | 18%
> CN1C[C@H](CNC(=O)OCc2ccccc2)C[C@@H]2c3cccc4c3c(cn4C)C[C@H]21
 : ? | 8% | -25% | 16%&-3% | 6%&10%
> CC1CCC2C(C)C(=O)OC3OC4(C)CCC1C32OO4 (stereo not given)
 : -26% | ? | -3% | 13% | 6%
> CC(Cc1ccc(O)cc1)NCC(O)c1cc(O)cc(O)c1 (stereo not given)
 : 29% | 0% | 7% | 1%&3% | ?

Exported field by field: two of the compounds above.
structure: CN1C[C@H](CNC(=O)OCc2ccccc2)C[C@@H]2c3cccc4c3c(cn4C)C[C@H]21
  GLP1R inv ag = ?; TDP-43 yeast inh = 8%; KB-V1 cytotox = -25%; aSyn rescue = 16%&-3%; GLP1R ag = 6%&10%
structure: C[C@]12CC[C@H](O)CC1=CCC1C2CC[C@]2(C)C(=O)CC[C@@H]12 (stereo not given in full)
  GLP1R inv ag = ·; TDP-43 yeast inh = ·; KB-V1 cytotox = ·; aSyn rescue = ·; GLP1R ag = -5%

The list goes on.
SMILES | GLP1R inv ag | TDP-43 yeast inh | KB-V1 cytotox | aSyn rescue | GLP1R ag
CN(C)[C@@H]1C(=O)C(C(N)=O)=C(O)[C@@]2(O)C(=O)C3=C(O)c4c(O)cccc4[C@@](C)(O)C3C[C@@H]12 (stereo not given in full) | 0% | -14% | -3% | ? | -3%
CC(C)NC1C2CCC(CC2)C1(O)c1ccc(Cl)c(Cl)c1 (stereo not given) | ? | 15% | -13% | 3% | 8%
C[C@]12CCC3C(CC[C@H]4CC(=O)CC[C@]34C)C1CCC2=O (stereo not given in full) | 130%[activator] | ? | -21% | 15% | 21%
CCCN1CCC[C@@H]2Cc3nc(N)ncc3C[C@H]21 | 5% | 0% | 2% | -1%&0% | -6%
NCCc1c[nH]c2ccc(O)cc12 | -3% | 3% | 27% | -2%&-1%&-7% | 24%
CCCN(CCC)[C@@H]1CCc2ccc(O)cc2C1 | · | · | · | 10% | ·
C[C@]12CCC3=C4CCC(=O)C=C4CC[C@H]3C1CC[C@@H]2O (stereo not given in full) | 20% | 9% | 3.7µM* | 16% | 6%
CCCN1CCc2cccc3c2[C@H]1Cc1ccc(O)c(O)c1-3 | -11% | -7% | ? | 3%&2% | -2%
c1ccc(C2(c3ccccc3)CC2C2=NCCN2)cc1 (stereo not given) | · | · | · | 4% | -1%
